# Screening data: PubChem BioAssay, Sanford-Burnham Center for Chemical Genomics
# MT1-MMP reporter: inhibitors of MT1-MMP promoter transcription, cell-based, luciferase reporter, luminescence (AID 618); hit rate 0.62% among 87,000; MT1-MMP promoter luciferase reporter cells, luminescence; calls from a first round at 10 µM; hits with a dose series show EC50 in µM;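 active = over half of the reporter light lost at 10 µM or EC50 under 50 µM; inactive = the rest and hits that failed the dose series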;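 also: actives suppress MT1-MMP promoter-driven transcription so potencies describe inhibitors; HT1080 fibrosarcoma cells; overnight exposure; toxic or luciferase-blocking compounds were not removed from the actives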
# Calls only; i = inactive.
mol | MT1-MMP reporter
COc1ccc(CCN2C(=O)C3CC(C)=C(C)CC3C2=O)cc1OC (configuration not stated) | i
CCOc1ccc(N2C(=O)CC(N3CCC(O)(c4ccc(Br)cc4)CC3)C2=O)cc1 (configuration not stated) | i
Cc1ccc(/C(N)=N/OC(=O)/C=C/c2ccccc2)cc1 | i
COCCNC(=O)COc1ccccc1C | i
COC(=O)c1ccc(C23CC4(C2)[C@H](CN(Cc2ccc(C(F)(F)F)cc2)[C@@H]4c2ccccc2)C3c2ccc(C(F)(F)F)cc2)cc1 (some centres not stated) | i
CCCCN(CCCNC(=O)c1ccc2nc(N3CCOCC3)sc2c1)Cc1ccccc1 | i
Cc1ccc(-c2noc(CN(C(=O)Cc3ccccc3)C(C)C)n2)cc1 | i
CCc1ccc(OCCCOc2ccc(C=O)cc2)cc1 | i
COC(=O)[C@@]1(Cc2ccc(OC)cc2)[C@H]2c3cc(C(=O)N(C)C)n(Cc4cc(C)n(C)n4)c3C[C@H]2CN1C(=O)c1ccccc1 | i
COc1ccc(Cl)cc1-c1n[nH]c(=S)n1C | i
CC1CN(C(=O)Nc2ccc3c(c2)OCO3)CC(C)O1 (configuration not stated) | i
CN1/C(=C/C(=O)c2cccs2)Sc2ccccc21 | i
CCC(C)(C(=O)NC1CCCCC1)N(C(=O)C1CCC(=O)N1)c1ccccc1 (configuration not stated) | i
CC1=C(C(=O)OCc2ccccc2)C(c2ccc(Cl)cc2)NC(=O)N1CCCC(=O)O (configuration not stated) | i
CCOc1ccc(N2C(=O)CS/C2=C(\C(Cl)=C(Cl)Cl)[N+](=O)[O-])cc1 | i
Cc1ccc(-c2nnc(SCC(=O)Nc3ccc4c(c3)oc3ccccc34)n2C)c(Cl)c1 | i

# In another format: 2 of the compounds above
> COC(=O)[C@@]1(Cc2ccc(OC)cc2)[C@H]2c3cc(C(=O)N(C)C)n(Cc4cc(C)n(C)n4)c3C[C@H]2CN1C(=O)c1ccccc1
  MT1-MMP reporter: i

> COc1ccc(Cl)cc1-c1n[nH]c(=S)n1C
  MT1-MMP reporter: i

# Following part
mol | MT1-MMP reporter
COC(=O)[C@@H]1C[C@@]2(O)[C@H](O)[C@H](O)[C@H](O)C[C@H]2N1Cc1ccc(C)s1 | i
CC(=O)c1ccc(NC(=O)c2cccs2)cc1 | i
COc1ccc(N(CC(=O)NCCSCc2c(F)cccc2Cl)S(C)(=O)=O)cc1OC | i
S=C(c1ccc2c(c1)OCO2)N1CCCCCC1 | i
CC(=O)Nc1ccc(S(=O)(=O)Nc2nc3ccc(C)cc3s2)cc1 | i
Cc1ccc(S(=O)(=O)NCCC(=O)O)cc1 | i
Cc1ccc(Cc2nc(-c3ccccn3)no2)cc1 | i
CSCC[C@H](NC(=O)OCc1ccccc1)C(=O)O | i
CCCCOc1ccc(C(=O)NCc2ccncc2)cc1 | i
Cc1nc(NC(=O)c2ccccc2)sc1-c1csc(NCCc2ccccc2)n1 | i
O=C1C2C(c3ccccc3)C=CC(c3ccccc3)C2C(=O)N1CCCO (configuration not stated) | i
CC(NC(=O)C12CC3CC(CC(C3)C1)C2)c1ccc2c(c1)OCCO2 (configuration not stated) | i
O=C(NCc1ccco1)C1CCN(Cc2ccc(F)cc2)CC1 | i
CCCc1cc(=O)oc2cc(OCC(=O)Nc3ccc4c(c3)OCCO4)ccc12 | i
COC(=O)c1ccc(Cl)c(NC(=O)NC23CC4CC(CC(C4)C2)C3)c1 | i
COC(=O)[C@@]1(Cc2ccc(F)cc2)[C@H]2c3cc(C(=O)N4CCCC4)n(CCN4CCNC4=O)c3C[C@H]2CN1C(=O)c1ccccc1 | i

# Structures from the list above with a COOH group (3):
mol | MT1-MMP reporter
CC1=C(C(=O)OCc2ccccc2)C(c2ccc(Cl)cc2)NC(=O)N1CCCC(=O)O (configuration not stated) | i
Cc1ccc(S(=O)(=O)NCCC(=O)O)cc1 | i
CSCC[C@H](NC(=O)OCc1ccccc1)C(=O)O | i

# Going on with the list:
mol | MT1-MMP reporter
COc1cccc(CNC(=O)CCS(=O)(=O)c2cccs2)c1 | i
COC(=O)c1cc2oc3ccccc3c2n1CC(=O)N1CCCc2ccccc21 | i
CCOC(=O)COc1ccc2c(c1)C(=O)CC1(CCCCC1)O2 | i
CN1/C(=C/C2CC(=O)NC2=O)C(C)(C)c2ccccc21 (configuration not stated) | i
COC(=O)c1ccc(C(NC(=O)OCc2ccccc2)/C(F)=C/[C@@H](C)C(=O)NCc2nc3ccccc3s2)cc1 (some centres not stated) | i
Cc1ccc(C2=[N+]([O-])C(C)N(O)C2(C)C)o1 (configuration not stated) | i
Cc1ccc(SC(=O)COc2ccc(C)c(C)c2)cc1 | i
CCCCN(CC)CCCNC(=O)Cn1nc(Cc2cccnc2)c2ccccc2c1=O | i
CCOC(=O)C1=C(C)N(CCCC(=O)N(Cc2ccc3c(c2)OCO3)C(C(=O)NC(C)(C)C)c2ccc3c(c2)OCO3)C(=O)NC1c1ccc(Br)cc1 (configuration not stated) | i
C[C@H](NC(=O)[C@@H]1C[C@H]1[C@@H](NC(=O)OCc1ccccc1)c1ccccc1)c1ccccc1 | i
CCOc1ccc(NC(=O)CCCc2cc(-c3ccc(OCC)cc3)on2)cc1 | i
CCOc1ccccc1CN1C(=O)c2ccccc2C1C(=O)NC(C)CC (configuration not stated) | i
COc1cc(NC(=O)CSc2ncccc2C(=O)OC(C)C)cc(OC)c1 | i
CCC(=O)N1c2ccc(S(=O)(=O)CCC(=O)NCc3cccs3)cc2CC1C (configuration not stated) | i
CC(Cc1ccccc1)C(=O)N[C@@H](CO)Cc1ccccc1 (some centres not stated) | i
C[C@@H](C(=O)O)[C@@H]1C[C@@]1(C)[C@@H](NC(=O)OCc1ccccc1)c1ccccc1 | i
O=C(Nc1cccc(OC(=O)c2cccnc2)c1)c1cccnc1 | i
Clc1ccc(CN2CCN(c3ncnc4scc(-c5cccs5)c34)CC2)cc1 | i
COC(=O)c1ccc(C23CC4(C2)[C@H](CN(Cc2cccnc2)[C@@H]4c2ccccc2)C3c2ccc(C(F)(F)F)cc2)cc1 (some centres not stated) | i
COc1cc2[nH]c(=O)n(Cc3ccc(C(=O)NCCCN4CCC(C)CC4)cc3)c(=O)c2cc1OC | i
N#CC1=C(Nc2ccccc2)SC=C(c2ccccc2)N=C1N1CCOCC1 | i
Cc1cc(C)c(OCCN2C(=O)NC(C)(C)C2=O)c(Cl)c1 | i
CCCCCn1c(=O)[nH]c2cc(C(=O)N3CCN(CC)CC3)ccc2c1=O | i
O=C(c1ccccc1F)N1CCN(c2ncccn2)CC1 | i
COC(=O)[C@@]1(Cc2ccc(OC)cc2)[C@H]2c3cc(C(=O)N4CCCC4)n(CCc4ccccn4)c3C[C@H]2CN1C(=O)c1ccccc1 | i
CCCCN1C(=O)NC(c2cccc([N+](=O)[O-])c2)C(C(=O)OCC)=C1C (configuration not stated) | i
CCOc1cc(C)nc(NCc2ccccc2)n1 | i
FC(F)(F)c1ccc(CN2C[C@@H]3C(c4ccccc4)C4(c5cccnc5)CC3(C4)[C@H]2c2ccccc2)cc1 (some centres not stated) | i
Clc1ccc(C2=CC(c3ccco3)n3ncnc3N2)cc1 (configuration not stated) | i
CC1=C(C(=O)OCc2ccccc2)C(c2ccc3ccccc3c2)NC(=O)N1CCCC(=O)O (configuration not stated) | i
COC(=O)N1[C@H](C)C=C[C@]1(Cc1ccccc1)C(=O)NCc1ccc(N(C)C)cc1 | i
CCN(CC)C(=O)c1sc(NC(=O)c2ccc(Br)o2)c(C(=O)OC)c1C | i
CCCn1c(Nc2ccccc2)nc2ccccc21 | i
CCc1ccc(NC(=O)CCS(=O)(=O)c2cccc3nsnc23)cc1 | i
S=C1N(c2ccccc2)C(c2cccc3ccccc23)N2CCCN12 (configuration not stated) | i
C[C@@H]1C=C[C@](Cc2ccccc2)(C(=O)O)N1C(=O)c1ccccc1 | i
CCC(Sc1nc2cc(OC)c(OC)cc2c(=O)n1Cc1ccco1)C(=O)NCCOC (configuration not stated) | i
O=C1Nc2ccccc2N(O)N1c1cc(-c2cccc(Cl)c2)no1 | i
CN(C)/C=N/c1cc(=O)[nH]c(=O)n1C | i
O=C(Nc1nc(-c2ccccc2Cl)cs1)c1cccnc1 | i
CCOC(=O)N1CCN(C(=O)c2ccc(NC(=O)CC)cc2)CC1 | i
COc1ccc(S(=O)(=O)Nc2ccccc2)cc1OC | i
CC(C)(C)c1ccc(S(=O)(=O)NC(Cc2ccccc2)C(=O)O)cc1 (configuration not stated) | i
CC(c1ccccn1)N(CCN(C)C)C(=S)Nc1ccccc1F (configuration not stated) | i
CCOc1ccccc1NC(=O)Nc1cccc(C(C)=O)c1 | i
COC(=O)C1=C(C)N(CCCC(=O)O)C(=O)NC1c1cccc(OC)c1 (configuration not stated) | i
CCc1nnc(NC(=O)CCc2ccc(C)o2)s1 | i
COC(=O)C1(CC(C)C)C=CCN1C(=O)c1ccccc1 (configuration not stated) | i

# Looked up by compound from the list above (two):
mol | MT1-MMP reporter
CCc1nnc(NC(=O)CCc2ccc(C)o2)s1 | i
CCOC(=O)N1CCN(C(=O)c2ccc(NC(=O)CC)cc2)CC1 | i

# Remaining list, next part:
mol | MT1-MMP reporter
C[Si](C)(C)C#Cc1ccccc1NC(=S)Nc1ccccc1 | i
COCCNC(=O)[C@@]1(Cc2ccccc2)C=C[C@@H](C)N1C(=O)OC | i
C#CCNC(=O)/C=C/c1ccc(OC)cc1 | i
O=C(NCc1ccccc1)[C@@H]1C[C@H]1[C@@H](NP(=O)(c1ccccc1)c1ccccc1)c1ccccc1 | i
O=C(c1ccc2c(c1)OCO2)N(Cc1ccco1)C1(C(=O)NC2CCCCC2)CCCCC1 | i
CS(=O)(=O)N(Cc1ccccc1)c1ccc(C(=O)N2CCc3ccccc3C2)cc1 | i
COCCNC(=O)[C@H](C)[C@@H]1C[C@@]1(C)[C@@H](NC(=O)OCc1ccccc1)c1ccccc1 | i
COc1cccc(CN2CCSCC2)c1 | i
O=C1NCCCN1Cc1ccc(F)cc1 | i
CCOc1ccc(C)cc1-n1nc2ccccc2n1 | i
Cc1ccc(CN(c2ccc(C(=O)N3CCc4ccccc4C3)cc2)S(C)(=O)=O)cc1 | i
CC1=C(C(=O)OCc2ccccc2)C(c2ccc(-c3ccccc3)cc2)NC(=O)N1CCCC(=O)O (configuration not stated) | i
COCCCNC(=O)C1CC(=O)OC1c1ccc(OC)c(OC)c1 (configuration not stated) | i
O=C(NCc1ccco1)C1(c2ccc(Cl)cc2)CCCC1 | i
CC12CC(c3ccccc3O1)N(C(=O)c1ccco1)C(=S)N2c1ccc(F)cc1 (configuration not stated) | i
COc1ccc(C)cc1NC(=O)Nc1ccccc1 | i
O=C(c1ccco1)n1nc(-c2ccccc2)nc1SCc1ccccc1 | i
C=CCc1c(C)nc(SCC(N)=O)[nH]c1=O | i
CCn1c(SCc2nc3ccccc3[nH]2)nnc1-c1cccnc1 | i
O=C(CSCCc1ccccn1)Nc1cccnc1Cl | i
COC(=O)[C@@]1(Cc2ccc(OC)cc2)[C@H]2c3cc(C(=O)N4CCCC4)n(Cc4cc(F)cc5c4OCOC5)c3C[C@H]2CN1C(=O)c1ccccc1 | i
Cc1ccn(C(=O)c2cc3ccccc3oc2=O)n1 | i
COc1ccc(Cl)cc1C(=O)Nc1ccc(S(=O)(=O)N2CCCC2)cc1 | i
COC(=O)[C@@H]1C[C@H]1[C@@H](NC(=O)c1ccccc1)c1ccccc1 | i
CCc1cccc2nc3c(c([Si](CC)(CC)CC)c12)Cn1c-3cccc1=O | i
O=C(NNC(=O)c1ccc([N+](=O)[O-])o1)c1ccccc1 | i
CC1=C(C(=O)OCc2ccccc2)C(C2CC2)NC(=O)N1CCCCCC(=O)O (configuration not stated) | i
Cc1cc(C)c2nc(N3CCC(C(=O)N4CCN(C(=O)c5ccco5)CC4)CC3)sc2c1 | i
CCOc1cc(C=O)ccc1OCCCN1C(=O)NC(C)(C)C1=O | i
CCOC(=O)CN1C=C(c2ccc3ccccc3n2)C(C[N+](=O)[O-])c2ccccc21 (configuration not stated) | i
C=CCOc1c(Cl)cc(CNCCC)cc1Cl | i
Cc1cccc(CCNC(=O)C2CCC(=O)N2Cc2ccc(F)cc2)c1 (configuration not stated) | i

# By substructure: the compounds so far with a nitro group on carbon (4)
mol | MT1-MMP reporter
CCOc1ccc(N2C(=O)CS/C2=C(\C(Cl)=C(Cl)Cl)[N+](=O)[O-])cc1 | i
CCCCN1C(=O)NC(c2cccc([N+](=O)[O-])c2)C(C(=O)OCC)=C1C (configuration not stated) | i
O=C(NNC(=O)c1ccc([N+](=O)[O-])o1)c1ccccc1 | i
CCOC(=O)CN1C=C(c2ccc3ccccc3n2)C(C[N+](=O)[O-])c2ccccc21 (configuration not stated) | i

# (listing goes on)
mol | MT1-MMP reporter
CCC/C=C(\CCC)C(NC(=O)C(C)(C)C)c1ccc(C(=O)OC)cc1 (configuration not stated) | i
Clc1ccc(C2[C@H]3CN(Cc4ccc(-c5ccccc5)cc4)[C@H](c4ccccc4)C34CC2(c2cccnc2)C4)cn1 (some centres not stated) | i
CCOc1ccccc1-c1nc(-c2cccc(Br)c2)no1 | i
O=C(CCSCCc1ccccn1)Nc1ccc(Cl)cn1 | i
CCCCN1CCc2c1nc1ccc(Br)cc1c2N | i
CCC[C@@H]1C[C@@]1(CCC)C(NC(=O)c1ccco1)c1ccc(Cl)cc1 (some centres not stated) | i
O=C(Cc1ccc(Cl)cc1)Nc1ccc(N2CCCC2)cc1 | i
CCOC(=O)C1CCCN(Cc2sccc2C)C1 (configuration not stated) | i

# Some of the compounds tested, so the mix of outcomes need not match the whole.
